# ALR inh: human ALR oxidase inhibition via reduced H2O2. P55789. purified ALR, DTT oxidation, H2O2 HRP-luminol luminescence. inhibition, % (no concentration beside the values). 3.8% of 290,000 active;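 active means mean and each replicate at 75% or more; inconclusive means only one of the two met; inactive means neither met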;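 further: stock transfer was 7.5 nL into about 7.5 µL; 0% = neutral wells and 100% = wells with inactivated enzyme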
# Target sequence (P55789 whole entry, looked up): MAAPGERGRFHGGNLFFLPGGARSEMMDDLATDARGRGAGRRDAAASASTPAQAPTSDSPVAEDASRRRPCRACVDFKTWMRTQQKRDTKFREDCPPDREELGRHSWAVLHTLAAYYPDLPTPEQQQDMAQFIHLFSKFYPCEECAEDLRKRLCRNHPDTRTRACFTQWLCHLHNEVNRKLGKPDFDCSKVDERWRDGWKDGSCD
# Ecoli rRNA inh: selective bacterial rRNA inhibition in E. coli; 1.6% of 350,000 active; GFP signal change (wild-type ribosome), % (no concentration beside the values); E. coli WT GFP vs humanized-ribosome RFP mutants, fluorescence, 24 h; hits give low values; DMSO median 0, no signal -100;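 active means significant combined selectivity score with lowered wild-type GFP, culture density cut under 30%, mutant RFP and density less affected; inactive means any of these conditions unmet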; further: one replicate is shown; some compounds called inactive have numbers as strong as hits
# T cruzi repl: blocks replication of Trypanosoma cruzi. T. cruzi beta-gal in NIH3T3, luminescence, 90 h. 1.4% of 300,000 active. inhibition, % (no concentration beside the values);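 active means mean inhibition across valid replicates above about 55%, limit read from the data; inconclusive means mean below that limit but half or more replicates reach it; inactive means mean below it, under half of replicates reach it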;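 further: signal also drops with host cell toxicity which is not excluded here; 0% = plate median of DMSO wells and 100% = zero luminescence signal; higher percent means less beta-gal luminescence so fewer parasites; stock transfer was 50 nL into about 50 µL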
# MLL AF4-AF9 inh: MLL-AF4/AF9 protein interaction inhibition; inhibition, % at 10 µM; AlphaScreen, biotin-AF4 peptide binding to FLAG-AF9; 0.47% of 350,000 active; P42568;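 active means every replicate reaching a set inhibition limit, whatever the replicate mean, cut at about 25% in these data; inconclusive means mean inhibition reaches that limit but some replicates miss it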;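 further: 0% = plate neutral control median and 100% = total signal loss; the record names both 10 and 1 µM as test concentration; the first replicate is given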
# Target sequence (P42568 whole entry, looked up): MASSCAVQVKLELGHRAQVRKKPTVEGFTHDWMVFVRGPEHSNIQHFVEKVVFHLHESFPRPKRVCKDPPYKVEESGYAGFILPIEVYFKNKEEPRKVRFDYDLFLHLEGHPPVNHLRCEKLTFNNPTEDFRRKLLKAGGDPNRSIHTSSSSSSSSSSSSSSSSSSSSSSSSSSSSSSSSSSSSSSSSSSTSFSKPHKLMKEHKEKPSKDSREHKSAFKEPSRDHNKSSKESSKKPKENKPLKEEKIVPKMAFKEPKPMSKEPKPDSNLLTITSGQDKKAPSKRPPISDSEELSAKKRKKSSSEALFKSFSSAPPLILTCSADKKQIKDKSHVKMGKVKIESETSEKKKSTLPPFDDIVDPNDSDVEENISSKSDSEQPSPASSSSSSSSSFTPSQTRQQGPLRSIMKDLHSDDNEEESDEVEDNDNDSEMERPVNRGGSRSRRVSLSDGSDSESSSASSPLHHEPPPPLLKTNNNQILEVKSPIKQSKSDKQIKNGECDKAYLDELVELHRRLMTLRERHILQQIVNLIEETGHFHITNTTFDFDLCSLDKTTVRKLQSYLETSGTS
# RanGTP-Impb inh: inhibitors of RanGTP-importin-beta interaction, primary screen, biochemical, FRET, CFP-Ran, YFP-importin-beta, homogeneous | inhibition, % (no concentration beside the values) | 1.1% of 300,000 active | cell-free CFP-Ran/YFP-importin-beta FRET ratio;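 active means most replicates above 15%; inconclusive means exactly half above 15%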;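 further: 0% = DMSO wells and 100% = Ran loaded with GDP instead of GTP; wells of about 40 µL received 100 nL stock; the first replicate is given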
# Beta apoptosis: blocks beta cell apoptosis; protection from apoptosis, % (test concentration not listed); INS-1E cytokine-induced death, ATP luminescence, 48 h; percent of positive-control rescue, neutral wells zero; 0.8% of 300,000 active;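 active means all replicates at 75% or more, or half of them and the mean; inconclusive means half reach 75% but not the mean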;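 further: 0% = cytokine-treated negative control wells and 100% = positive control rescue; higher means more ATP so stronger rescue from cytokine killing; wells of about 40 µL received 100 nL stock; the first replicate is given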
# FGF22 binding: shifts melting point of recombinant human FGF22 | recombinant FGF22 thermal shift, SYPRO orange fluorescence; percent of sucrose octasulfate shift, DMSO zero | calls only at 9.99 µM | 1.5% of 340,000 active;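 active means melting point raised past a set limit in the mean and every replicate; inconclusive means no clear call; three in four hits are not shown here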
# Target sequence (Q9HCT0 whole entry, looked up): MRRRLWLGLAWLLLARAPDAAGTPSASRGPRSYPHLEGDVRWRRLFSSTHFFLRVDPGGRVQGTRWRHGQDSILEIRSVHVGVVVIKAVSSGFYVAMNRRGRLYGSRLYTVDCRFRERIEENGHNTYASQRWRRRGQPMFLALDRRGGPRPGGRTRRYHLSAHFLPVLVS
# Calb FLC: affects C. albicans growth with fluconazole | C. albicans CaCi-2 (fluconazole-resistant clinical isolate) + fluconazole, Alamar Blue growth, 48 h | growth inhibition, % (concentration not given with the values) | AID 1979 | 0.57% of 300,000 active;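 active means most replicates above 75%; inconclusive means exactly half above 75%; inactive means most below 75%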;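 further: all wells also contain fluconazole at 8 µg/ml as a sub-toxic cotreatment; 0% = median of DMSO wells and 100% = median of geldanamycin control wells; wells of about 8 µL received 7.5 nL stock; the first replicate is given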
# Ecoli rRNA inh OD600: further read-out of Ecoli rRNA inh, marked with its call; OD600 change, %; measured here: OD600 growth;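 optical density of the mix in the first replicate; 0 = DMSO median and -100 = no signal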
# Ecoli rRNA inh RFP: second read-out of Ecoli rRNA inh, no call of its own (marks repeat the call); RFP signal change, %; measured here: RFP humanized mutant strains;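 first replicate; 0 = DMSO median and -100 = no signal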
# * hit, by the source's call; i = inactive; ? = inconclusive; nt = no result given. Some of the compounds tested; the hit share may differ from the screen's.
SMILES,ALR inh,Ecoli rRNA inh,Ecoli rRNA inh OD600,Ecoli rRNA inh RFP,T cruzi repl,MLL AF4-AF9 inh,RanGTP-Impb inh,Beta apoptosis,FGF22 binding,Calb FLC
Cc1cc(C)nc(/N=C(\N)Nc2ccc(CC(=O)OC(C)C)cc2)n1,nt,-8,1,-2.7,10,-18,0.6,nt,i,-10
Cc1ccc(S(=O)(=O)N2CCOCC2)cc1NC(=O)c1cccc(S(=O)(=O)N2CCCC2)c1,-6,-13,-8,-4.1,7,-0.9,-0.1,2,i,-1
O=C(CNC(=S)N(Cc1ccccc1)Cc1ccccc1F)NCc1ccc(Cl)cc1,nt,-27*,-14*,1.3*,45,0.4,-0.4,nt,i,11
CCOc1c(C)cnc2c1c(=O)n(Cc1c(F)cccc1Cl)c(=O)n2C,-3,5,-3,-1.6,12,-15,1.1,4,i,16
COc1ccc(NC(=S)N2CCN(Cc3ccccc3)CC2)cc1,-5,-2,0,3.6,-2,0.2,-1.8,nt,i,-20
COc1ccc(/C=N/NC(=O)c2sccc2C)c2ccccc12,-12,11,17,0.0,4,1.3,2.6,1,i,-7
CCCOc1ccc(C(C)=O)cc1CN1CCOCC1,0,10,4,-0.1,-2,-48,0.6,2,i,-7
CCOCCCNC(=O)N[C@@H](Cc1ccccc1)C(=O)OC,-4,nt,nt,nt,-8,nt,8.6,-3,nt,-3
CC(=O)SC1CC2=CC(=O)CCC2(C)C2CCC3(C)C(CCC34CCC(=O)O4)C12 (centres undefined),-15,-21,-26,-4.3,15,-5.4,-2.3,nt,i,-5
CCOC(=O)C1(S(=O)(=O)c2ccccc2)CCN(Cc2ccccc2)CC1,-1,nt,nt,nt,9,nt,2.1,-4,nt,5
CCOC(=O)C1(Cc2ccccc2C)CCCN(S(=O)(=O)c2cccnc2)C1 (centres undefined),-3,-24,-31,-7.6,24,0.8,2.0,1,i,1
S=C(NCc1ccccc1)N1CCN(c2cccc(Cl)c2)CC1,1,-28,-38,-2.4,21,-1.8,4.9,-4,i,-7
COc1ccccc1-n1c(-c2ccccc2)c[nH]c1=S,nt,6,-10,-9.5,-9,-5.9,?,nt,i,-11
Cc1ccc2cc3cc(C(=O)NCCCN4CCCC4=O)oc3nc2c1,78*,-6,-6,0.4,-5,-1.7,2.3,-1,i,-1
CCOC(=O)c1cnc2c(F)ccc(F)c2c1Sc1ccccc1,nt,17,10,0.4,-9,-0.2,1.0,-14,i,0
CC(=O)Nc1ccc(NC2=C/C(=N/S(=O)(=O)c3cccs3)c3ccccc3C2=O)cc1,-58,5,4,5.7,56*,5.1,6.3,101*,i,?
COC(=O)c1ccc(C(=O)OC)c(NC(=S)N2CCCCC2C)c1 (centres undefined),0,nt,nt,nt,-33,nt,?,-7,nt,-9
CCOC(=O)c1[nH]c(C)c(C(=O)OCC)c1C,-14,-6,1,3.2,-1,0.1,5.4,nt,i,-2
O=C(COc1ccccc1)NC(=S)Nc1ccc2c3c(cccc13)CC2,-9,nt,nt,nt,-4,nt,?,0,nt,-19
Cc1ccc(-c2csnn2)cc1,2,8,10,0.7,-12,-2.6,17,-2,i,-28
N=C1CCCN1CC(=O)c1ccc(Br)cc1,-8,nt,nt,nt,-5,nt,4.1,-7,nt,0
Nc1ccn(CC(=O)NCCNc2ccc([N+](=O)[O-])cn2)c(=O)n1,-1,-2,-2,3.8,nt,-0.9,nt,8,i,nt
OCCC1CN(Cc2c(F)cccc2Cl)CCN1C1CCCC1 (centres undefined),-18,2,-1,0.3,8,-0.4,2.4,-10,i,-3
C/C(=N/NC(=O)c1cccnc1)C1=C(O)CC(C)(C)CC1=O,-2,10,12,0.8,-7,0.0,-1.4,-20,i,-6
Cc1cc(C)c(S(=O)(=O)N2CCC(C(=O)NCc3ccc(Cl)cc3Cl)CC2)c(C)c1,nt,nt,nt,nt,19,nt,?,-9,nt,-1
COc1cc(CNCc2ccc3c(c2)OCO3)c([N+](=O)[O-])cc1OC,-20,20,6,0.5,9,5.6,?,-4,i,3
O=C(c1c[nH]c2ccccc12)N1CCN(c2ccccc2)CC1,87*,-2,3,6.8,-15,5.1,-1.7,2,i,-2
O=C(Oc1ccc([N+](=O)[O-])cc1)c1ccc(Cl)c(S(=O)(=O)N2CCCCC2)c1,3,nt,nt,nt,0,nt,-1.0,2,nt,19
O=c1oc(-c2ccccc2)nc2sc3c(c12)CCCC3,40,nt,nt,nt,-17,nt,2.5,-5,nt,22
O=C(Nc1ccccn1)Nc1cccs1,-2,5,3,1.1,3,3.9,3.2,1,i,-2
CCCCCCCCN1[C@@H](CC(=O)O)c2cc(C(F)(F)F)ccc2S1(=O)=O,98*,-9,-24,-4.3,-17,2.3,0.0,5,i,-9
CCN(CC)S(=O)(=O)c1cccc2cc(C(=O)O)c(O)cc12,-4,nt,nt,nt,-17,nt,-7.5,-7,nt,11
CC1Cc2cc(/C(O)=C3/C(=O)C(=O)N(CCCn4ccnc4)C3c3ccco3)ccc2O1 (centres undefined),-2,nt,nt,nt,nt,nt,5.8,-8,nt,1
O=C(Nc1cccc(-c2cccc(Cl)c2)c1)C1CCN(C2CCC2)CC1,-8,-10,-27,0.1,35,14,2.7,3,i,3
COc1ccc(C(=O)O)cc1S(=O)(=O)NC(C)C,-9,6,-4,-6.0,-7,2.9,-8.3,-5,i,-1
C=CCNC(=S)NNC(=O)C(CCCC)CC(C)(C)O (centres undefined),8,nt,nt,nt,-16,nt,0.3,2,nt,0
COc1ccc(-c2noc(CCC(=O)N3CCN(c4cccc(C(F)(F)F)c4)CC3)n2)cc1,-10,nt,nt,nt,18,nt,-3.7,2,nt,-1
COc1ccc(Nc2nc3ccc(C)cc3cc2C#N)c(OC)c1,-30,nt,nt,nt,19,-2.6,-5.0,-17,i,7
CCOCCCN(C(=O)CCC(=O)Nc1cc(C)on1)C(C(=O)NC(C)(C)CC)c1cccc(OC)c1OC (centres undefined),nt,1,0,-2.1,-2,-0.8,-2.3,6,i,0
CN1CCN(S(=O)(=O)c2ccc(N3CCN(c4ccccc4Cl)CC3)nc2)CC1,nt,9,11,-1.3,nt,0.7,nt,1,i,nt
O=C(O)c1ccccc1N=Cc1c(O)n(-c2nccs2)c(=O)c2ccccc12,5,-1,-5,-3.8,14,5.7,6.8,1,i,-6
CC(C)NC(=O)CSc1nnc(-c2ccncc2)n1-c1ccccc1,2,nt,nt,nt,-3,nt,-2.7,3,nt,0
Cc1ccc(C(=O)OCC(=O)c2c[nH]c3ccccc23)cc1S(=O)(=O)N1CCCCC1,2,nt,nt,nt,26,nt,1.2,-6,nt,-2
COc1cccc(CNC(=O)C2CCN(c3cnccn3)CC2)c1,-11,nt,nt,nt,-19,nt,-4.9,-8,nt,-13
CCCNC(=O)c1ccc(COc2cccc3ccccc23)o1,-7,-22,-24,1.1,4,5.1,-2.1,nt,i,12
NC(=O)c1nsc(C(=O)N(Cc2ccccc2Cl)C(C(=O)NCC2CCCO2)c2ccc(O)cc2)c1N (centres undefined),nt,-2,0,-2.7,-11,-1.5,6.8,nt,i,-4
O=C(NCCCn1ccnc1)c1cccc(S(=O)(=O)Nc2ccc(Br)cc2)c1,nt,-14,-36,-0.5,-1,2.5,-1.0,2,i,3
O=C1c2ccccc2C(=O)N1CCc1c[nH]c2ccccc12,7,-21*,-8.9*,-1.1*,-8,4.6,0.6,-7,i,16
O=C(CSc1nc2c(sc3ccccc32)c(=O)n1CCCN1CCOCC1)NC1CCCC1,-7,nt,nt,nt,-8,nt,-1.5,0,nt,-7
CCC(C)NC(=O)CN(c1cc(Cl)cc(Cl)c1)S(C)(=O)=O (centres undefined),-1,4,-9,-7.5,-8,3.1,2.3,-6,i,-5

# Another view of part of the listing above.
# Second line of a record – ALR inh, Ecoli rRNA inh, Ecoli rRNA inh OD600, Ecoli rRNA inh RFP, T cruzi repl, MLL AF4-AF9 inh, RanGTP-Impb inh, Beta apoptosis, FGF22 binding, Calb FLC
O=C(NCCCn1ccnc1)c1cccc(S(=O)(=O)Nc2ccc(Br)cc2)c1
→ nt, -14, -36, -0.5, -1, 2.5, -1.0, 2, i, 3
COc1cccc(CNC(=O)C2CCN(c3cnccn3)CC2)c1
→ -11, nt, nt, nt, -19, nt, -4.9, -8, nt, -13

# Later entries:
SMILES,ALR inh,Ecoli rRNA inh,Ecoli rRNA inh OD600,Ecoli rRNA inh RFP,T cruzi repl,MLL AF4-AF9 inh,RanGTP-Impb inh,Beta apoptosis,FGF22 binding,Calb FLC
Cc1ccc(S(=O)(=O)N2CCN(C(=O)COC(=O)C3CC3C)CC2)c(C)c1 (centres undefined),-1,4,4,0.4,nt,0.2,nt,-1,i,nt
COC(=O)C1C/C(=N\NS(=O)(=O)c2ccc(C)cc2)c2sccc2C1 (centres undefined),3,nt,nt,nt,12,nt,-3.8,-5,nt,-18
O=C(Nc1ccccc1C(F)(F)F)Nc1cccc2ccccc12,-40,nt,nt,nt,0,nt,1.9,-8,nt,-10
COc1ccccc1/C=C/C(=O)Nc1ccc(S(=O)(=O)Nc2cc(C)on2)cc1,2,-35*,-24*,-4.4*,-12,-0.8,?,2,i,-10
COc1ccc(NC(=O)c2cc(-c3ccco3)nc3ccccc23)cc1S(=O)(=O)N1CCOCC1,nt,7,3,-2.8,-1,6.5,?,2,i,2
C=CC[C@H](CC(=O)NCCO)C(=O)N[C@@H](COC(=O)[C@H](CC=C)CC(=O)OC(C)(C)C)Cc1c[nH]c2ccccc12,10,5,4,-5.9,nt,-3.1,nt,2,i,nt
CCOc1ccc(S(=O)(=O)N2CCNC(=O)C2)cc1,-3,22,14,-0.7,nt,0.8,nt,-6,i,nt
O=C(CSCSCC(=O)Nc1ccc2c(c1)OCO2)Nc1ccc2c(c1)OCO2,-5,-12,-5,-4.7,-19,5.3,-3.6,2,i,0
CC(=O)Nc1cccc(NC(=O)c2cc(C)on2)c1,-10,7,5,-4.9,8,-4.5,-2.2,-1,i,-1
COc1cc2c(c(OC)c1OC)CC(=O)N(C)CC2,-9,nt,nt,nt,-15,nt,-1.0,-6,nt,-2
Cn1c(Cn2nnc3ccccc32)nnc1SCC(=O)NCc1ccc2c(c1)OCO2,nt,-1,2,0.1,-18,-43,2.9,nt,i,18
CC(=O)Nc1nnc(-c2ccccn2)o1,-1,18,22,-5.5,-4,3.0,-4.9,-3,i,-16
CC(C)C[C@@H](COc1ccccc1)N1CCN(CC(C)C)CCC1=O,2,10,4,-0.2,6,-2.3,0.0,-5,i,-14
CCOCCCNC(=O)C1CC(=O)N(C2CCCC2)C1 (centres undefined),-2,-6,-13,-4.2,5,nt,-1.1,-7,nt,16
O=[N+]([O-])c1cc(/C=N/O)ccc1Sc1ccccc1,28,nt,nt,nt,-8,nt,-2.1,1,nt,-6
Cc1cc2oc(=O)cc(C)c2cc1NC(=O)CCl,5,9,-2,0.5,-5,-2.9,0.0,-4,i,5
CCN(CC)S(=O)(=O)c1ccc(N2CCOCC2)c(NC(=O)c2cc(C)cc(C)c2)c1,-33,nt,nt,nt,26,nt,-2.1,6,nt,-6
c1cncc(-c2noc(-c3ccc4ccccc4c3)n2)c1,-2,8,14,0.6,-22,-1.5,-5.2,0,i,-3
COc1ccc(OC)c(C2C(C#N)=C(N)N(N(C)C)C3=C2C(=O)CCC3)c1 (centres undefined),-23,16,11,5.3,4,2.3,0.3,-5,i,2
